# Screening results: PubChem, National Center for Advancing Translational Sciences (NCATS)
# Six1-Eya2 blk: inhibitors of human Six1/Eya2 interaction. hit rate 0.56% among 360,000. AlphaScreen GST-Six1/His-Eya2 binding, biochemical; stronger effect = lower value; control for the full effect not named in the record. activity change, % (concentration not given with the values). Q15475+O00167; in the data active = activity change below about -65%; inconclusive = about -30% to -65%; inactive = above about -30%; also: % is scaled to controls: 0 for no effect and ±100 for the full control effect
#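 Six1/Eya2 binding was read as AlphaScreen signal after compounds were pinned into GST-Six1 plus His-tagged Eya2 (5X stock 250/500 nM) in pH 8.0 Tris/NaCl/TCEP buffer, beads added, then incubated 1 h, 37 C, dark.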
# TRPML1 blocker: blocks the human TRPML1 channel. Q9GZU1. TRPML1-inducible cells, Ca2+ dye fluorescence, FDSS; stronger effect = lower value; inhibition of EC80 agonist-evoked calcium signal. activity change, negative = inhibition, % (no concentration beside the values). hit rate 0.02% among 390,000. AID 624415; in the data active means activity change below about -50%; inconclusive means about -30% to -50%; inactive means above about -30%;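 also: stimulus is agonist 54-4 at its EC80 concentration; % is scaled to controls: 0 for no effect and ±100 for the full control effect; compound concentration not given in the record; the text of the record puts the active cut at -80%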
# Target sequence (Q9GZU1 whole entry, looked up): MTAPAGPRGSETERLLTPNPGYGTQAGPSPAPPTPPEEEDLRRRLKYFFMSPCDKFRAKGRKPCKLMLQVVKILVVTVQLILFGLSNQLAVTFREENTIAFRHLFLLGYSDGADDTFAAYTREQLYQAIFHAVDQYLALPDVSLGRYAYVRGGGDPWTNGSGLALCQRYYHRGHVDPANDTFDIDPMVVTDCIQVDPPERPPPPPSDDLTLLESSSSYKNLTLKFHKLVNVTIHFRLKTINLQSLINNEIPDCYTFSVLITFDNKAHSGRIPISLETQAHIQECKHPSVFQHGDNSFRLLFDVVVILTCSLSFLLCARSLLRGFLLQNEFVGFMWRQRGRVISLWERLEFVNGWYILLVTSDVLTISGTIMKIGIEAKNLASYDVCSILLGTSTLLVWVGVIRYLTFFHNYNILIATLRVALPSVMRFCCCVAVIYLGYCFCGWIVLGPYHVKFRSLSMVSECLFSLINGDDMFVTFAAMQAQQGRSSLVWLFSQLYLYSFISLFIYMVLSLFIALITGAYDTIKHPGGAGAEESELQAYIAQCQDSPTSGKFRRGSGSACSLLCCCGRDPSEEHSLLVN
#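 Calcium fluorescence in TRPML1-DL cells induced overnight with Tet: a 110 s read after compound pin addition, then a 110 s antagonist read after challenge with 54-4 at 4 uM final (EC80).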
# TRPML1 ag: human mucolipin-1 channel agonism; TRPML1-expressing cells, Ca2+ dye fluorescence, FDSS; host cell line not named in the record; reference of the full effect not given here; activation, % (concentration not given with the values); hit rate 0.12% among 410,000; in the data active = activation above about 50%; inconclusive = about 30% to 50%; inactive = below about 30%; also: 0% is about no effect; the text of the record puts the active cut at 80%
#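 Tetracycline-induced TRPML1-DL cells are seeded and incubated overnight before loading with a no-wash Ca2+ dye and quencher. Agonist activity is taken from the 110 s fluorescence read following compound pin-transfer on an FDSS, before EC80 54-4 challenge.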
# D2 potentiator: human D2 receptor positive allosteric modulation. hit rate 0.23% among 360,000. DiscoveRx D2 beta-arrestin cells, luminescence, 90 min; 100% = 57 uM dopamine signal. P14416. potentiation, % (no concentration beside the values); active = potentiation of 50% or more; inconclusive = 30% to 50%; inactive = 30% or less;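 also: compound concentration not given in the record; tested on top of an EC20 dose of dopamine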
# Target sequence (P14416 whole entry, looked up): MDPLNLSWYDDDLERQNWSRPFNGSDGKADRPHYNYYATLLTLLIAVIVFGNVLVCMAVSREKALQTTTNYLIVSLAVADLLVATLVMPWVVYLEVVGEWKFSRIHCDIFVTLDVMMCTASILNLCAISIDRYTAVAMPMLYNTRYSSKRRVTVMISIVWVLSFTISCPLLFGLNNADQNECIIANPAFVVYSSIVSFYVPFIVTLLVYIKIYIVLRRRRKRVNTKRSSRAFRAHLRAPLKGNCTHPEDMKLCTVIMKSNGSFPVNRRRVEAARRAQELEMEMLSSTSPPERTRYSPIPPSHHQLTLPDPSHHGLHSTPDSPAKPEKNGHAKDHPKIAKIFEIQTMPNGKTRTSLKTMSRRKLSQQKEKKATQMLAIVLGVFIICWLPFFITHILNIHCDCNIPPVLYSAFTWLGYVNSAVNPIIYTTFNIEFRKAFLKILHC
#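 PathHunter beta-arrestin assay in DiscoveRx D2 cells. Compounds were added with an EC20 of dopamine (50 nM final) for 90 min at 37 deg C. Luminescence was read 1 h after detection reagent, with 57 uM dopamine as the EC100 control.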
# CtBP-E1A blk: inhibitors of CtBP/E1A interaction; AlphaScreen GST-E1A/His-CtBP binding, 1536-well; stronger effect = lower value; control for the full effect not named in the record; activity change, % (no concentration beside the values); hit rate 0.49% among 340,000; in the data active means activity change below about -65%; inconclusive means about -30% to -65%; inactive means above about -30%; also: % is scaled to controls: 0 for no effect and ±100 for the full control effect; compound concentration not given in the record
#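 Steps: dispense buffer (Tris pH 8.0, NaCl 300 mM, TCEP 1 mM, BSA, Tween 20); add 5X protein mix (GST-E1A, His-CtBP, 125 nM each); pin 23 nL compound; 2 h at 37 °C, dark; add 5X beads (50 ug/mL); 1 h; read.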
# TRPV1 PAM: potentiators of human vanilloid receptor 1 (TRPV1); Q8NER1; TRPV1-expressing cells, Fluo-8 calcium influx, capsaicin EC20 potentiation; host cell line not named in the record; control for the full effect not named in the record; potentiation, % at 8.33 µM; hit rate 0.02% among 320,000; active means potentiation above 80%; inconclusive means 30% to 80%; inactive means below 30%; also: 0% is about no effect
#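 Fluo-8 calcium influx in TRPV1-expressing cells, kinetic read (ex 480/em 520 nm). Compound added and read 3 min for agonist activity, followed by capsaicin at EC20 final and 2 min further read for enhancement.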
# An asterisk follows results filed as active; ? = inconclusive; · = not tested or not shown; & = joins results of further samples.
SMILES,Six1-Eya2 blk,TRPML1 blocker,TRPML1 ag,D2 potentiator,CtBP-E1A blk,TRPV1 PAM
O=C(NCc1ccccn1)Nc1cccc(NC(=O)NCc2ccccn2)c1,-13,-5,0.1,-1,-24,-11
Cc1cccc2c1-c1sc(C(=O)NCCCN3CCc4ccccc4C3)cc1CO2,3,5,1.4,-10,0,?
c1ccc(CNCCCNCCCCNCCCNCc2ccccc2)cc1,23,-9,0.8,-9,-8,·
CC1CN(CCOc2ccccc2[N+](=O)[O-])CC(C)O1 (configuration not stated),19,3,-0.2,-5,2,3
Cc1cccc(C)c1-n1nnnc1C1(C)CCC(=O)N1CC1CCCCC1 (configuration not stated),18,·,0.4,·,-17,·
O=C(O)COc1ccccc1/C=N/NC(=O)c1ccc2c(c1)OCCO2,11,2,-0.4,0,·,-16
COCCNC(=S)N1CCN(C)CC1,0,·,·,-9,8,5
Fc1ccc(CN2CCSCC2)cc1F,-4,-9,-0.1,-2,4,7
CCOC(=O)C1(Cc2ccccc2)CCN(Cc2ccon2)CC1,3,5,0.0,-8,-4,-6
CN(c1nc2nonc2nc1NC1CC1)C1CCOC1 (configuration not stated),5,-24,1.1,-6,9,-11
Cc1sc2c(c1C)c(=O)n(-c1ccc(F)cc1)c(=O)n2CC(=O)NCc1ccco1,-5,-18,1.4,0,9,·
CC(C)C(=O)Nc1c(C(=O)c2ccc(F)cc2)oc2ccccc12,26,10,3.1,-5,21,·
C(=N\Nc1nc(-c2ccccc2)cs1)/c1cccs1,-19,35,2.3,63*,-17,6
O=C(N1CCCCC1)N1CCCN(C(=O)N2CCCCC2)CC1,-7,-12,0.7,-13,0,-8
CCOC(=O)C1=C(COC(=O)/C=C/c2ccc(OC)cc2)NC(=O)NC1C (configuration not stated),5,8,1.5,-11,0,-8
COC(=O)C1=C(C)Nc2[nH]c(=S)[nH]c(=O)c2C1c1ccc(OC)cc1 (configuration not stated),2,-14,1.2,-3,-8,-6
CC1(C)Cc2nc3sc(C(=O)NCCCO)c(N)c3cc2CS1,-27,-3,-0.3,-11,-5,0
Cc1cccc(CC2CC(=O)N(C3CCCCC3)C2=O)c1 (configuration not stated),35,-23,0.7,-18,22,4
Cc1ncc2c(n1)-c1cc(F)ccc1SC2,0,16,-1.1,16,7,?
Cc1ccc(C2=N/C(=C\c3cccc(F)c3)C(=O)O2)cc1,4,-9,0.4,0,-2,-15
O=C(COC(=O)c1ccc(S(=O)(=O)NCc2ccco2)cc1)Nc1ccc(OC(F)F)cc1,-2,-2,-0.1,-14,0,8
O=C(O)CSc1nnc(Cc2ccccc2)n1-c1ccccc1,3,-4,0.2,-19,-8,22
O=C(CNCC(=O)Nc1ccc(F)c(F)c1F)Nc1ccc(F)c(F)c1F,4,·,·,-3,4,-12
CCN(CC)CCNc1ncnc2c1sc1nc(N3CCOCC3)c3c(c12)CCCC3,-3,3,1.1,1,2,0
CCN(CC)CCN1C(=O)C2C(C(=O)Nc3ccc(Br)cc3)C3C=CC2(O3)C1C(=O)NC1CCCCC1 (configuration not stated),13,-1,-0.4,-9,-5,-1
C=COCCCNc1ncnc2sc(-c3ccccc3)cc12,2,·,·,-16,4,-11
Cc1ccc(C)c(NC(=O)CN(C)C(=O)c2cc(S(=O)(=O)N3CCOCC3)ccc2N2CCCC2)c1,0,-1,0.0,-34,-1,6
COc1ccccc1-c1nnc(NC(=O)Cc2ccccc2)o1,-27,25,-1.2,-21,·,2
Nn1c(SCC(=O)NC2CCCCCC2)nnc1C(F)(F)F,9,-5,0.9,3,1,·
Clc1ccc(N2CCN(Cc3ccco3)CC2)cc1,-13,3,-0.1,-15,3,-4
Cc1nnc(SCC2=C(C(=O)O)N3C(=O)C(NC(=O)Cn4cnnn4)C3SC2)s1 (configuration not stated),17,-6,-0.2,-5,2,3
CCN(C[C@H]1N[C@@](CC)(C(=O)OC)[C@H]2C(=O)N(Cc3ccccc3)C(=O)[C@@H]12)C(=O)Nc1ccc(OC)cc1,4,9,-0.4,·,-11,·
Cc1ccc(NS(=O)(=O)c2ccc3c(c2)NC(=O)CCS3)cc1C,6,-11&-6,0.4&2.9,-9,·,-14
CCOc1cc(CNCCN2CCOCC2)ccc1OCc1ccccc1Cl,-2,-13,0.8,-2,-11,19
COc1ccc(-c2noc(CCC(=O)N3CCC(C)CC3)n2)cc1,-1,1,-0.2,-4,-6,-23
C=CCSc1nc2sc3c(c2c(=O)n1CC=C)CCc1ccccc1-3,8,-1,2.3,27,19,-3
CCCn1c(N)c(N(CCOC)C(=O)COC(=O)c2ccccc2NCCO)c(=O)[nH]c1=O,-9,77,-0.6,0,1,?
CC(=O)NC(Cc1ccc(C)cc1)C(=O)NC1CCN(C(=O)c2ccc([N+](=O)[O-])cc2)CC1 (configuration not stated),9,-15,-0.1,-9,·,3
COc1cc(CNn2nnnc2N)cc(Br)c1OCc1c(Cl)cccc1Cl,-4,-9,-0.3,10,3,-1
Brc1ccc2c(c1)C(C1=NCCN1)c1ccccc1CS2 (configuration not stated),38,35,2.2,-5,-10,13
CCCCc1ccc(NC(=S)NCCCN2CCOCC2)cc1,0,0,0.0,-5,-2,-16
O=C(N/N=C/c1cccc(Cl)c1)C(c1ccncc1)N1CCOCC1 (configuration not stated),3,-4,0.3,-8,-25,9
COc1ccc(C)cc1N(CC(=O)Nc1cccc(N(C)S(C)(=O)=O)c1)S(C)(=O)=O,-1,-9,-0.4,2,12,8
CC(C)(C)c1ccc(CN2C(=O)CSC2=O)cc1,6,50,0.0,-7,·,-26
COC(=O)c1ccc(CSc2nc3ccccc3o2)cc1,27,-2,0.2,-1,34,2
COc1ccc(C(=O)Nc2cccnc2)cc1OC,-8,2,-0.5,-15,-4,?
COCCN(C(=O)c1ccc(-c2ccc([N+](=O)[O-])cc2)o1)c1c(N)n(CC(C)C)c(=O)[nH]c1=O,-5,8,-0.3,-23,2,6
Cc1ccccc1NS(=O)(=O)c1ccc(OCC(=O)N2CCCCC2)cc1,4,-3,0.5,-9,8,-2
COC(=O)c1ccc(NC(=O)CN2CCN(S(=O)(=O)c3cc(Cl)ccc3OC)CC2)cc1,-12,7,-0.1,-19,-5,12
CCN(CC(=O)NC1CCCCC1)S(=O)(=O)c1ccc(Cl)cc1,12,6,1.1,-13,-1,-15
# Other records
SMILES,Six1-Eya2 blk,TRPML1 blocker,TRPML1 ag,D2 potentiator,CtBP-E1A blk,TRPV1 PAM
O=C1CC(c2ccc(Cl)cc2)n2nc(NS(=O)(=O)c3ccc(F)cc3)nc2N1 (configuration not stated),6,-19,0.3,-1,1,-1
COc1ccc(OC)c(CCNC(=O)CCCC(=O)n2ncc3cc(C)ccc32)c1,-4,3,1.0,-6,-6,16
CC(C)Cc1nnc(NC(=O)CCC(=O)NCCc2ccccc2)s1,5,5,-0.7,-7,-3,17
COCCCNC(=O)Nc1ccc(Br)cc1Cl,1,-4,-0.1,-13,0,-19
COc1c(C)cc(C(=O)C2CCCN(Cc3ccc(Oc4ncccn4)cc3)C2)cc1C (configuration not stated),-5,32,1.0,-20,·,-18
COc1ccc(OCC(=O)Nc2c3c(nn2C(C)(C)C)CSC3)cc1,3,-12,1.5,9,-2,-15
Cc1cccc(NC(=O)CN2CCCCCC2)c1,7,22,0.9,-8,5,0
CCN(CC)CCOc1cccc(C(C)C)c1,4,7,0.2,-31,15,-22
CCOc1cc(/C=N/NC(=O)C2CCCC2)ccc1O,-16,-2,0.0,1,-23,9
O=C(NCc1cccnc1)/C(=C\c1ccc(-c2ccc(Cl)c(Cl)c2)o1)S(=O)(=O)c1ccccc1,4,64,0.8,-22,43,-6
CN(Cc1ccccc1)c1nnc(N)s1,-2,-7,-0.2,2,3,-10
CCn1c(SCC(=O)NC2CCCC2)nnc1C(C)NC(=O)c1ccccc1F (configuration not stated),2,-15,1.7,-6,-7,8
O=C(CCC(=O)c1cccs1)OCC(=O)c1ccc(Cl)s1,14,-2,0.6,-18,10,-15
CCc1nc2ccc(C(=O)NCc3ccccc3OC)cn2c1N(CCC(C)C)CCN(C)C,0,·,0.0,-11,-2,·
CC(CCC(C)C(C)(C)C)[C@@H]1CC[C@H]2C3C[C@H](OS(O)(=S)=S)[C@H]4C[C@H](OS(O)(=S)=S)[C@@H](OS(O)(=S)=S)C[C@]4(C)[C@H]3CC[C@]12C (some centres not stated) (tested in a mixture with another compound),?,30,4.2,-6,?,·
CCC(C)N(C(=O)CSc1nncn1C)C1CCS(=O)(=O)C1 (configuration not stated),-4,13,-0.5,-4,7,·
COc1cc(C2OCC3C(c4ccc(OC5OC(CO)C(O)C(O)C5O)c(OC)c4)OCC23)ccc1O (configuration not stated),-26,·,·,-22,2,-6
CN1C(C(=O)NCc2cccs2)=CC(c2ccc(F)cc2)=NS1(=O)=O,-3,2,2.8,-12,·,-7
O=C(O)c1ccc2nc(-c3ccccc3)c(-c3ccccc3)nc2c1,-11,-16,0.0,-14,-1,-4
Cc1ccc(C2C=CC(C#N)=CN2Cc2ccccc2)cc1 (configuration not stated),-17,·,0.4,-7,-11,·
Cc1ccsc1-c1nc(CN2CCN(C)C(=O)[C@@H]2C)c(C)o1,0,-6,0.3,-7,0,13
C=CCN(C(=O)c1ccccc1)c1ccc(OC)cc1,0,3,-0.9,-33,-5,12
CCOc1ccc(C(C)=O)cc1COC(=O)c1ccc2c(c1)NC(=O)CS2,1,-16,-0.5,0,·,27
Cc1ccc(C(=O)Nc2c(-c3cccs3)nc3cc(C)ccn23)cc1,-2,2,1.4,-9,-4,-17
COCCNC(=O)C(c1ccc(C)o1)N(Cc1ccco1)C(=O)c1snc(C(N)=O)c1N (configuration not stated),-1,30,-0.7,-10,-3,6
COc1cccc(C(=O)N(c2ccc(OC)cc2OC)C2C=CS(=O)(=O)C2)c1 (configuration not stated),6,-9,0.8,-7,2,-33
CCOc1cc(S(=O)(=O)NCCCN2CCOCC2)c(C)cc1C,-1,12,0.3,-19,2,1
